Screening data as filed in PubChem.
NPR1 antag – blocks ANP-stimulated signaling of human Npr1 receptor | 76,000 tested, 1.6% active | P16066 | Potency, µM (top dose mostly 46.3 µM), for the others: at the highest dose activity change, negative = inhibition, actives largely listed as inhibitors | HEK293 hNpr1 GloSensor cGMP, ANP-stimulated luminescence; active = well fitted inhibition curve with a large enough effect; inconclusive = small, poorly fitted or top-dose-only effect; inactive = no such curve, though single readings can be large or run the other way;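 further: nearly all actives have a fitted effect of over 60% in size; nearly all hits also lower the signal before the agonist is added; a reference antagonist and vehicle were the controls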
Target sequence (P16066 whole entry, looked up): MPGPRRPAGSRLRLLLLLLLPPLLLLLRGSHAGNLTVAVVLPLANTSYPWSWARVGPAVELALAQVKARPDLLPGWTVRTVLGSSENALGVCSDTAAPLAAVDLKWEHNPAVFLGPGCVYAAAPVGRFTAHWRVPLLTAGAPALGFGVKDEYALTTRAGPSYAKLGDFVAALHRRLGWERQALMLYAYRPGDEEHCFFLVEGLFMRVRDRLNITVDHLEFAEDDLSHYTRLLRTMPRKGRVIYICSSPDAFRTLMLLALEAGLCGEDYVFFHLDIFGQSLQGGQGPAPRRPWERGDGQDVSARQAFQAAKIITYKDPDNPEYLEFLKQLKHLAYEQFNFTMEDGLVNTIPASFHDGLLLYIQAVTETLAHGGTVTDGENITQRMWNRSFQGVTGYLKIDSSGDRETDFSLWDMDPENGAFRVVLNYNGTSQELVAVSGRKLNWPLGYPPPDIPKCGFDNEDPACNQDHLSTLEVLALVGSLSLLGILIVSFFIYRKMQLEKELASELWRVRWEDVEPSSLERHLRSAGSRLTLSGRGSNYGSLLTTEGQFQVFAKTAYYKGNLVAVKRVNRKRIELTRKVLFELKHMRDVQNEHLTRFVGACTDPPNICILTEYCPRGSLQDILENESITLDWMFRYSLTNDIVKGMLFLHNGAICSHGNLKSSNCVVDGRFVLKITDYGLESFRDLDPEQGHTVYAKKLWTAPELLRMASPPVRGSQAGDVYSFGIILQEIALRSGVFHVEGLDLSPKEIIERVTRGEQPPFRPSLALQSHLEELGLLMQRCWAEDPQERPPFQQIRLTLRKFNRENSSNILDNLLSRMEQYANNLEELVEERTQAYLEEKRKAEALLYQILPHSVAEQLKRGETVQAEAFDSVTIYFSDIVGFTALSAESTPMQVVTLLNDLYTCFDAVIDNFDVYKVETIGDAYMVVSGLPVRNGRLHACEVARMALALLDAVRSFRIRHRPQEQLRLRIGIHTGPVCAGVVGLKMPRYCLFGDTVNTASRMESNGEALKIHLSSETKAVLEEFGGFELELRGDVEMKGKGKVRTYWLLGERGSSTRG
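Compound pre-incubated 30 min at room temperature on GloSensor-loaded HEK293 cells stably carrying hNpr1 and the pGS-40F cGMP biosensor. Stimulation uses hNppA at 0.1 nM final; luminescence is taken at baseline and 20 min post-agonist.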
* = called active by the depositor; u = inconclusive; & = joins results of further samples; [ ] = dose if it differs, or a comment. On the % scale 0 is the no-effect control and ±100 the full control effect; potency means the concentration at half of the fitted maximal effect.

SMILES	NPR1 antag
C[C@@H]1CN(C(=O)c2cnc3c(O)cccn3c2=O)CC[C@@]1(O)C1CCC1	-1%
N#Cc1ccccc1CN1CCNc2nc(CNCc3ccc4c(c3)OCO4)n(Cc3ccccc3)c2C1=O	-29%
O=C(Cc1cccs1)N1CCC2(CC1)CC(N(Cc1ccc(F)cc1)C1CC1)CCO2 (centres undefined)	24%
Cc1nnc(-c2cc(C(=O)NC3CCOCC3)ccn2)n1CCc1ccccc1	4%[70.6 µM]
COc1ccccc1CNC(=O)C1N(C(C)C)C(=O)C12CCCC2 (centres undefined)	-1%
CN(C)Cc1nnc(C2CC(NC(=O)c3ccc4c(c3)CCO4)C2)n1C (centres undefined)	-1%
COc1ccc([C@H]2C[C@@H](O)[C@@H](O)[C@@H]2NS(=O)(=O)c2ccc(C#N)cc2)cc1	-1%[70.6 µM]
CN(C)C(=O)CN1C(=O)CO[C@H](c2ccc(NC(=O)c3ccccc3)cc2)[C@H]1CO	-13%[70.6 µM]
CNC(=O)N1CCC(C2CCN(C(=O)CCn3cccn3)C2)CC1 (centres undefined)	3%
O=C(CN1CCCC1=O)N[C@H]1CN(Cc2ccccc2F)C[C@@H]1C1CC1	1%
O=C(NC1CCc2ccccc21)C1CCN(C(=O)c2ncn3c2COC(c2ccccc2)C3)CC1 (centres undefined)	-10%
O=C(NCCC1=CCCCC1)c1cc2c(s1)CN(C1CCCC1)C2	2%
O=C(NCc1ccccc1)c1cnc2n1CCN(Cc1ccccn1)CC2	8%[70.6 µM]
Cc1ccc(NC(=O)c2ccc3c(c2)N(S(C)(=O)=O)CC3)c(C)c1	-9%
COc1ccc(OCc2nc(C)c(CCO)c(=O)n2CC(=O)Nc2cccc(Cl)c2)cc1	1%
CN1CC2CN(C(=O)NCc3ccc(F)cc3)CC(C1)O2	-2%
O=C(NC1CCCN(c2cc(-c3ccccc3)[nH]n2)C1)c1ccc(F)cc1Cl (centres undefined)	-19%
CN(C)c1ccc(CN[C@H]2C[C@H]3C(=O)NC[C@@H](CCC(=O)N4CCC(O)CC4)N3C2)cc1	-1%
Cc1cc(Cl)ccc1OCC(=O)N1CCC2(CC1)CC(O)CCO2 (centres undefined)	-1%
CN1C(=O)[C@H]2CN(Cc3ccc(C#N)cc3)C[C@H]2C1=O	-1%
CN(CC1CCOC1)C(=O)NCCc1ccccc1 (centres undefined)	1%
O=C(NCCc1noc(C2CCCC2)n1)c1cc(F)c(F)cc1Cl	-1%
COCC(=O)N[C@H]1C[C@@H](CO)N(Cc2ccc(C#N)cc2)C1	3%
O=C1COc2ccc(Nc3cccnc3)nc2CN1Cc1ccc(C(F)(F)F)cc1	-24%[70.6 µM]
O=C(c1ccc(=O)[nH]c1)N1CCC2(CCCN(Cc3ccccc3F)C2=O)C1 (centres undefined)	-4%
CN1CCN(c2ncccc2CNC(=O)[C@H]2[C@@H]3C=C[C@@]4(CN(C)C(=O)[C@@H]24)O3)CC1	0%
Cc1ccc(-c2cn3c(n2)CO[C@@H](CNC(=O)CCC(=O)O)C3)cc1	-3%[70.6 µM]
C=CCNC(=O)[C@@H]1[C@H](c2cc(OC)c(OC)c(OC)c2)c2cc3c(cc2[C@H](O)[C@H]1CO)OCO3	-4%
COCCn1nc2n(c1=O)CCN(Cc1ccc3[nH]ccc3c1)CC2	-1%
Cc1ccc(C(=O)N2CCCCCCNC(=O)[C@@H]3CCC[C@@H]32)s1	-20%
CC(=O)N1CC2(CCN(Cc3nnc(C)n3C)CC2)CC1C(=O)O (centres undefined)	4%
O=C1CCCN1CCCN1C(=O)[C@@H]2C[C@@H](O)CN2C2(CN(Cc3cccc(OC(F)(F)F)c3)C2)C1=O	6%
COc1ccc(CC(=O)N2CCc3nc(-c4ccc(Cl)cc4)nc(-c4ccccc4)c3C2)cc1	5%
C#CCN(C)C(=O)c1onc(-c2ccc(OC)cc2)c1[C@H](C)O	7%[70.6 µM]
CCOc1ccccc1NC(=O)N1CCCCCCNC(=O)[C@@H]2CCCC[C@@H]21	1%
Cc1cccnc1CN1C[C@@H](F)[C@@H](OCc2nc3ccccc3o2)C1	3%[70.6 µM]
CCOC(=O)N1CCC(N2CCN(c3cc(C(C)C)nc(C)n3)CC2)CC1	5%
CN1CC(=O)N(c2cccnc2)Cc2c(NCC3CCCCC3)ncnc21	5%
N#Cc1ccc2nc([C@H]3CCN(Cc4ccc(F)c(F)c4)C3)[nH]c2c1	-20%[70.6 µM]
CC(C)(O)CCc1cccc(C(=O)NC2CCN(c3ncccc3C#N)CC2)c1	2%
O=C(O)c1ccc(CN2Cc3[nH]cnc3C[C@H]2c2nc(-c3ccc(F)c(Cl)c3)no2)cc1	-11%
COc1ccc(C(=O)N2CC[C@H]3COC(=O)N3c3cc(C)ccc3C2)cc1	-11%[70.6 µM]
Cc1ccc(NC(=O)N2CCc3[nH]c4ccc(F)cc4c3C2)cc1	1%
O=c1c2c(n(Cc3ccccc3)n1-c1ccccc1)CN(Cc1cccnc1)CC2	0%[70.6 µM]
CSCCCN1CC(Oc2cccc(C(=O)N3CCCC3)c2)C1	6%
Cc1ccc(NC(=O)N2Cc3[nH]cnc3C[C@H]2c2nc(-c3ccncc3)no2)cc1	-4%[70.6 µM]
COCCn1ccc2c(C3=CCOCC3)nc(-c3cccc(CO)c3)cc21	3%[70.6 µM]
CCc1nc2c(NC(=O)NCc3ccc(OC)cc3)cccn2n1	4%
CC(C)NC(=O)N1CC[C@H](c2nc3ccc(F)cc3[nH]2)C1	5%[70.6 µM]
CCCN(CC1CCOC1)S(=O)(=O)c1ccc2c(c1)CCC2 (centres undefined)	-11%

Structures from the list above containing a COOH group:
SMILES	NPR1 antag
Cc1ccc(-c2cn3c(n2)CO[C@@H](CNC(=O)CCC(=O)O)C3)cc1	-3%[70.6 µM]
CC(=O)N1CC2(CCN(Cc3nnc(C)n3C)CC2)CC1C(=O)O (centres undefined)	4%
O=C(O)c1ccc(CN2Cc3[nH]cnc3C[C@H]2c2nc(-c3ccc(F)c(Cl)c3)no2)cc1	-11%

Remaining list, next part:
SMILES	NPR1 antag
O=C(c1ccncc1)N1CCCN(CCc2ccccc2)c2ccccc21	-6%
CN(C)CC1(O)CCC2(CCN(C(=O)c3cnccn3)CC2)CC1	-2%
O=C(N1CCCN(c2cc(-c3ccc(Cl)cc3)[nH]n2)CC1)C1(c2ccccc2)CC1	u
Cn1ccnc1C(=O)N1CCN(C(=O)N2CC3CC(C2)[C@H]2CCCC(=O)N2C3)CC1 (some centres undefined)	-1%
O=C(c1cccnc1)N1CC(Oc2ccc(-c3noc(-c4ccccc4)n3)cc2)C1	11µM*
COc1cc(C(=O)N2CCC[C@H]2c2nc(-c3ccccc3Cl)no2)cc(OC)c1OC	-13%
O=C(Nc1ccc(C2(C(=O)NCC3CC3)CCCCC2)cc1)C1CC1	4%
Cc1cc(OC2CN(C(=O)c3ccccc3F)C2)ccc1F	4%[70.6 µM]
CCC(=O)N1CCN(c2nc3c(s2)CC(C(=O)NCc2cccs2)CC3)CC1 (centres undefined)	-21%
CCCc1cc(C(=O)N2CC[C@@H](NC(=O)c3cnccn3)[C@H](O)C2)no1	0%
O=C(c1ccc(F)cc1)N1CCc2nc(C3CC3)nc(-c3ccc(O)cc3)c2CC1	-2%
CC(C)[C@@H]1CN(C(=O)CCCS(N)(=O)=O)C[C@H]1C(=O)O	-4%
Cc1ccc(-c2nc3cnccn3c2NCCC(=O)N(C)C)cc1	-1%
CC(=O)NCC1CCCN(Cc2ccc(-c3ccccc3C#N)o2)C1 (centres undefined)	-22%
CCC1=C(C(=O)OC)C(c2ccccc2OC)N2C(CC(=O)NCC3CC3)=CSC2=N1 (centres undefined)	-19%
COCc1nnc2n1CCC(NC(=O)CCCc1nc3ccccc3s1)CC2 (centres undefined)	1%
O=C(c1nnc(CN2CCN(CCO)CC2)n1-c1ccccc1)N1CCC[C@@H]1C(c1ccccc1)c1ccccc1	-3%
COCC(=O)N1CC2(Cc3ccccc3N([S+](C)(=O)[O-])C2)C1	8%[70.6 µM]
COCCN1CC(CO)C2(CCN(C3CCN(C(C)=O)CC3)CC2)C1 (centres undefined)	4%
COCC(=O)N[C@@H]1CN(C(=O)c2cccc(C)c2)CC[C@@H]1c1nc(C)no1	2%

Quoted at random: 7 records from the list, in no set order.
SMILES	NPR1 antag
COCC(=O)N1CC2(Cc3ccccc3N([S+](C)(=O)[O-])C2)C1	8%[70.6 µM]
CC(C)[C@@H]1CN(C(=O)CCCS(N)(=O)=O)C[C@H]1C(=O)O	-4%
Cc1ccc(-c2nc3cnccn3c2NCCC(=O)N(C)C)cc1	-1%
O=C(c1nnc(CN2CCN(CCO)CC2)n1-c1ccccc1)N1CCC[C@@H]1C(c1ccccc1)c1ccccc1	-3%
COCc1nnc2n1CCC(NC(=O)CCCc1nc3ccccc3s1)CC2 (centres undefined)	1%
COCC(=O)N[C@@H]1CN(C(=O)c2cccc(C)c2)CC[C@@H]1c1nc(C)no1	2%
CC(=O)NCC1CCCN(Cc2ccc(-c3ccccc3C#N)o2)C1 (centres undefined)	-22%

The list goes on:
SMILES	NPR1 antag
O=C(Cc1c[nH]c2ccccc12)N1C[C@@H](CO)[C@H](c2ccccn2)C1	-13%
COc1ccc(NC(=O)c2ccc3c(c2)N(S(=O)(=O)c2ccccc2)CC3)cc1	10µM*
Cc1[nH]nc(-c2ccc(F)cc2)c1CC(=O)Nc1ccc2c(c1)C(=O)N1CCC[C@H]1C(=O)N2	-7%
O=C1NCCCCCCN(Cc2ccncc2)[C@@H]2CN(C(=O)c3ccsc3)CC[C@@H]12	-1%
COc1ccc(NC(=O)N2CC3CC(C2)[C@H]2CCCC(=O)N2C3)cc1 (some centres undefined)	5%
CC1CCN(C(=O)c2ccccc2OCC2CCCN(Cc3cccnc3)C2)CC1 (centres undefined)	-16%
Cc1ncc2n1C(=O)N(C1CCN(Cc3cccn3C)CC1)C2	-7%&-6%[70.6 µM]
CCOc1ccc(CC(=O)N2CCC[C@H]2c2nc(-c3ccc(OC)cc3)no2)cc1	-13%
COc1ccc(CNC(=O)Cn2nc3n(c2=O)CCCCC3)cc1	1%
Cc1ccc(NC(=O)CN2CCCc3nc(C4CC4)ncc3C2=O)cc1	-2%
COCCCNC(=O)Cc1csc2nc(C)c(-c3cc(C)n(-c4ccccc4F)n3)c(=O)n12	-3%
O=C1CC2(CCN(Cc3ccsc3)CC2)Oc2ccccc2N1c1ccccc1	-13%
Cc1nc(C)c(C(=O)N2Cc3ccccc3C(O)C2)s1 (centres undefined)	4%
COc1ccc(Nc2cnc3ccc(-c4ccccc4)nn23)cn1	-3%[70.6 µM]
O=C(Cn1ccn2nc3c(c2c1=O)CCCCC3)Nc1ccc2c(c1)OCCO2	10%
COc1cccc([C@H]2CN(C(=O)CNC(=O)N(C)C)C[C@@H]2N)c1	-1%
CC(C)NC(=O)N1CC(C(=O)N(C)C)C2(CCOCC2)C1 (centres undefined)	-2%
O=C(COc1ccccc1)N1C[C@@H]2C[C@H](C1)c1ccc(-c3cccc(C(F)(F)F)c3)c(=O)n1C2	5%
CC(C)CN1C[C@@H](C(=O)O)C[C@@H](C(=O)NCc2ccccn2)C1	1%
O=C(CN1C(=O)NC2(CCOCC2)C1=O)NCc1ccc(Cl)cc1	-1%
COc1ccccc1CNC(=O)CCC[C@H]1NC[C@@H]2C[C@H]1CN(Cc1ccccc1)C2	1%
O=c1n(-c2ccc(F)cc2F)nc2n1CCN(Cc1ccc(C(F)(F)F)cc1)C2	u
Cc1cc2nc3n(c(=O)c2n1CC(=O)Nc1ccccc1Cl)CCCCC3	-5%
COc1ccccc1N1CCCc2ncc(C(=O)Nc3cccnc3)cc21	-19%[70.6 µM]
CN1CCOc2c(C(=O)NCc3cccnc3)cc(-c3ccc(CO)cc3)cc21	-14%[70.6 µM]
NC(=O)c1n[nH]c2c1CN(CC1(O)CNCCOC1)CC2 (centres undefined)	1%
COc1ccc(C(=O)NCCC2CCN(C(=O)Nc3cc(F)cc(F)c3)CC2)cc1	-26%
COC(=O)C1CCN(CC(O)COc2cccc(CN3CC=C(C)CC3)c2)CC1 (centres undefined)	0%
COc1ccc(C(=O)N2CCC3(CC2)OCC(C(=O)NC(C)C)N3C(=O)c2ccc(OC)cc2)cc1 (centres undefined)	-6%
COCCN1C(=O)CSC12CCN(C(=O)Nc1cccc(Cl)c1Cl)CC2	3%
Cn1nccc1C(=O)N1CC(COc2ccccc2)C2(C1)CN(c1ccccc1)C2 (centres undefined)	-3%[70.6 µM]
CCn1nccc1C(=O)NCCC1CCN(C(=O)Nc2ccccc2)CC1	-6%
COc1ccc(CN2CCN(c3cc(N(C)C)ncn3)CC2CCO)c(C)c1C (centres undefined)	-16%
CCn1ncc(N2CCC(NC(=O)c3ccc(OC)cc3)CC2)cc1=O	3%
COc1ccc(NC(=O)c2ccc3c(c2)N(C)C2CCCCN2C3=O)cc1 (centres undefined)	-6%
COc1cc(F)ccc1-c1ccnc2nc(C3CCCCC3)nn12	-4%
COCc1cc(C[C@@H]2CC[C@H](O)[C@@H](CNC3CCCCC3)O2)no1	0%[70.6 µM]
CC(=O)Nc1ccc(NC(=O)c2cc(-c3ccncc3)cn2Cc2ccccc2C)cc1	-17%
COC1CCN(CC2CCCCCN2C(=O)c2ccoc2)CC1 (centres undefined)	0%
CCc1nn(-c2ccc(F)cc2)c(Oc2ccccc2)c1CCC(=O)NCC1CCCO1 (centres undefined)	u
O=C(Nc1ccc(F)cc1)C1CC(=O)N(c2n[nH]c3cc(Br)ccc23)C1 (centres undefined)	-6%

Some of the compounds tested; count on the stated rates, not on these rows.
